# gsp antag: antagonists of gsp mutant (McCune-Albright syndrome); gsp-mutant cells, cAMP HTRF, 30 min; control for the full effect not named in the record; Potency, µM (titrated, usually from 76.9 µM), inactives show at the highest dose activity change, negative = inhibition, hits mostly inhibitors; actives 0.4% (n = 340,000); active = falling curve of any shape with a large fitted effect; inconclusive = falling curve, mostly with a smaller effect; inactive = flat or rising curve; cell line not stated here;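 also: intracellular cAMP measured with PDE inhibitor Ro 20-1724 present during compound exposure; potency is read from the fitted curve at half-maximal effect; % is scaled to controls: 0 for no effect and ±100 for the full control effect; nearly all actives have a fitted effect of over 65% in size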
#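 Cells in G418 medium, seeded 16-24 h, 37C; buffer exchange to DPBS + 1 mM CaCl2, 0.5 mM MgCl2, 0.05% BSA; cpds in DMSO + […] (300 uM stock), 30 min 37C; HTRF cAMP detection.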
# D2 ag: activates the human D2 dopamine receptor | actives 0.084% (n = 360,000) | activation, % (concentration not given with the values) | DiscoveRx PathHunter D2 beta-arrestin, luminescence, 90 min; 100% = 57 uM dopamine signal | P14416; in the data active = activation above about 40%; inconclusive = about 15% to 40%; inactive = below about 15%; also: compound concentration not given in the record; the text of the record calls up to 30% inactive
#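 Agonist mode: compounds alone added to overnight-plated D2 PathHunter cells for 90 min at 37 C, with 57 uM final dopamine (EC100) defining full response. Beta-arrestin recruitment detected by chemiluminescent reagent, read after 1 h at ambient temperature.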
# Six1-Eya2 blk: blocks human Six1 binding to Eya2. Q15475+O00167. AlphaScreen GST-Six1/His-Eya2 binding, biochemical; stronger effect = lower value; control for the full effect not named in the record. activity change, % (concentration not given with the values). actives 0.56% (n = 360,000). AID 651725; in the data active = activity change below about -65%; inconclusive = about -30% to -65%; inactive = above about -30%; also: % is scaled to controls: 0 for no effect and ±100 for the full control effect
# Target sequence (O00167 whole entry, looked up): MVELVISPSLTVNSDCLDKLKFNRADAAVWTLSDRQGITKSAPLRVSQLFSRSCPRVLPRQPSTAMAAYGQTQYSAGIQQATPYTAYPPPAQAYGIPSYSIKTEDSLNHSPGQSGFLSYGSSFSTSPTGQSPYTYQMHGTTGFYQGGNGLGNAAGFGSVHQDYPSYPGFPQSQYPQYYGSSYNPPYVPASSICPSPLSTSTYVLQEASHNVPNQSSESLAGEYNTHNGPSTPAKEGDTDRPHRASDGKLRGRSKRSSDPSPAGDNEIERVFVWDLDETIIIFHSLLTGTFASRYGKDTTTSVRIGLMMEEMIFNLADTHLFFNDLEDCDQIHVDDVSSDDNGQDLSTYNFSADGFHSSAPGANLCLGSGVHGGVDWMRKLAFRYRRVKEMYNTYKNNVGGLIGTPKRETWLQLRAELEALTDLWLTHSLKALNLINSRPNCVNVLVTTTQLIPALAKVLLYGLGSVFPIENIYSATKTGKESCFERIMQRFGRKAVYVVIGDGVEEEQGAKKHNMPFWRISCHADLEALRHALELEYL
# Target sequence (Q15475 whole entry, looked up): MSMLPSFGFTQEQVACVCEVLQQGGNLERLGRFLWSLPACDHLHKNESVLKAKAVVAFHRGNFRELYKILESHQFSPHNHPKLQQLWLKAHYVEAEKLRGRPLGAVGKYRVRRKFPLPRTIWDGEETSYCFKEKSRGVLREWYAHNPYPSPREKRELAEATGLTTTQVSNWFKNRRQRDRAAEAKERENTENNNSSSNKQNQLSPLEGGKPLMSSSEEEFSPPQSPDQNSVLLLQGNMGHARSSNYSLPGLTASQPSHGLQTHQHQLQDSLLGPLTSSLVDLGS
#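 Compounds are tested against tagged Six1 and Eya2 proteins bridged by glutathione donor and nickel acceptor beads; after a one-hour incubation at 37 °C without light, AlphaScreen emission is recorded.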
# gsp agonist: activates gsp, the McCune-Albright syndrome mutation | gsp mutant cells, cAMP HTRF, 30 min; control for the full effect not named in the record | Potency, µM (top dose mostly 76.9 µM), without a hit: top-dose activation (cAMP increase), actives largely listed as activators | actives 0.13% (n = 340,000) | AID 624287; active = well fitted activation curve with a large enough effect; inconclusive = small, poorly fitted or top-dose-only effect, or another doubt; inactive = no such curve, though single readings can be large or run the other way; cell line not stated here;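 also: phosphodiesterase inhibitor Ro 20-1724 added with compounds to block cAMP breakdown; potency is read from the fitted curve at half-maximal effect; nearly all actives have a fitted effect of over 60% in size; about a fifth of the inactives were tested at one dose only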
#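 Cells in DMEM/10% FBS with G418 were pretreated with compounds in DMSO plus […] (300 uM stock) for 30 min at 37C. cAMP was measured by HTRF (cAMP-d2 plus anti-cAMP antibody-K) after 30 min at room temperature.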
# D2 PAM: human D2 receptor positive allosteric modulation. actives 0.23% (n = 360,000). potentiation, % (test concentration not listed). DiscoveRx D2 beta-arrestin cells, luminescence, 90 min; 100% = 57 uM dopamine signal. P14416; active = potentiation of 50% or more; inconclusive = 30% to 50%; inactive = 30% or less;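 also: compound concentration not given in the record; tested on top of an EC20 dose of dopamine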
#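 PathHunter D2 cells, attached overnight at 37 deg C, received compound in DMSO plus dopamine at EC20 (50 nM final) for 90 min at 37 deg C. Beta-arrestin recruitment was read as luminescence after 1 h with detection reagent at ambient temperature.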
# CtBP-E1A inh: inhibitors of CtBP/E1A interaction; activity change, % (no concentration beside the values); AlphaScreen GST-E1A/His-CtBP binding, 1536-well; stronger effect = lower value; control for the full effect not named in the record; actives 0.49% (n = 340,000); in the data active means activity change below about -65%; inconclusive means about -30% to -65%; inactive means above about -30%; also: % is scaled to controls: 0 for no effect and ±100 for the full control effect; compound concentration not given in the record
#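 In 5 uL wells, 23 nL compound meets equimolar GST-E1A and His-CtBP (5X stock 125 nM each) for 2 h, 37 °C. Beads (5X, 50 ug/mL) then 1 h, 37 °C, dark.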
# * = called active by the depositor; ? = inconclusive; / = no result given; [ ] = remark or other dose.
# Start of the listing, in advance (4 entries):
SMILES,gsp antag,D2 ag,Six1-Eya2 blk,gsp agonist,D2 PAM,CtBP-E1A inh
O=S(=O)(c1ccc(Br)cc1)c1nc(-c2ccccc2)oc1N1CCOCC1,-19%,-2.3,-12,7%,-8,-8
O=C(/C=C/c1cn(-c2ccccc2)nc1-c1cccc(Cl)c1)N1CCN(c2ccccn2)CC1,-22%,-7.5,-2,14%[15.4 µM],0,0
COCc1nc(-c2cc(Br)ccc2OC)no1,14%,-2.2,8,?,2,-1
O=[N+]([O-])c1ccc(C2CN=C(Nc3ccccc3)S2)cc1 (centres undefined),10%,0.2,-7,-72%[inhibitor],7,2

# The whole of this part, from the start:
SMILES,gsp antag,D2 ag,Six1-Eya2 blk,gsp agonist,D2 PAM,CtBP-E1A inh
O=S(=O)(c1ccc(Br)cc1)c1nc(-c2ccccc2)oc1N1CCOCC1,-19%,-2.3,-12,7%,-8,-8
O=C(/C=C/c1cn(-c2ccccc2)nc1-c1cccc(Cl)c1)N1CCN(c2ccccn2)CC1,-22%,-7.5,-2,14%[15.4 µM],0,0
COCc1nc(-c2cc(Br)ccc2OC)no1,14%,-2.2,8,?,2,-1
O=[N+]([O-])c1ccc(C2CN=C(Nc3ccccc3)S2)cc1 (centres undefined),10%,0.2,-7,-72%[inhibitor],7,2
COc1cc(S(=O)(=O)n2cnc(C)c2)ccc1Cl,/,-0.3,2,-16%[15.4 µM],11,-2
Cc1cc(C)c(C)c(S(=O)(=O)N2CCN(C(=O)c3ccccn3)CC2)c1C,16%,-3.2,-1,3%,2,/
CCn1c(SCC(=O)N2CCN(c3ccccc3)CC2)nnc1-c1c[nH]c2ccccc12,?,-6.3,-3,26%,-3,-7
CC(c1nnc(SCC(=O)Nc2cccnc2Cl)n1Cc1ccccc1)N(C)C (centres undefined),9%,-2.6,-5,9%[15.4 µM],-12,-18
CCn1ccnc1CNC(=O)CC1C(=O)NCCN1CC(c1ccccc1)c1ccccc1 (centres undefined),12%,-1.1,-1,?,-6,-2
CCOC(=O)N1CCN(C(=O)CN(c2ccc(OCC)cc2)S(C)(=O)=O)CC1,-1%,-3.2,0,-14%,-7,1
COc1ccc(CC(=O)NCC2COc3ccccc3O2)cc1 (centres undefined),-2%,2.1,1,3%,-1,/
O=C(COc1ccc(Cl)cc1)NCc1nnc(SCC(=O)N2CCCCCC2)o1,3%,0.2,12,-45%[inhibitor],2,8
C=Cn1c(C(=O)O)cc(CC)c1-c1ccccc1,-14%,0.2,-2,?,-6,9
CCCCCC(=O)N1C[C@H](O)[C@@H](n2cc(C3CC3)nn2)C[C@@H]1c1ccc(Cl)cc1,/,-3.8,-1,13%,6,1
Cc1ccc(N2C(=O)CC(N3CCN(c4ccccn4)CC3)C2=O)cc1 (centres undefined),8%,-2.9,-11,25%,-3,-10

# Of the compounds above, 2 have bromine:
SMILES,gsp antag,D2 ag,Six1-Eya2 blk,gsp agonist,D2 PAM,CtBP-E1A inh
O=S(=O)(c1ccc(Br)cc1)c1nc(-c2ccccc2)oc1N1CCOCC1,-19%,-2.3,-12,7%,-8,-8
COCc1nc(-c2cc(Br)ccc2OC)no1,14%,-2.2,8,?,2,-1

# New compounds follow
SMILES,gsp antag,D2 ag,Six1-Eya2 blk,gsp agonist,D2 PAM,CtBP-E1A inh
CCc1c(C)nc(SCC(=O)Nc2ccc3c(c2)OCCO3)[nH]c1=O,-9%,-1.3,-6,11%,-10,6
CC(Sc1nnc(C2CC2)n1C)C(=O)Nc1ccc2c(c1)CCC2 (centres undefined),20%,-7.1,-5,-18%,-2,-1
CCOC(=O)c1c(NC(=O)CSc2n[nH]c(CNc3ccccc3)n2)sc(C)c1C,-4%,-2.3,-3,1%,-5,7
COCc1c(C#N)c(NCc2cc(OC)c(OC)c(OC)c2)nc(C)c1[N+](=O)[O-],-12%,-0.5,-9,-28%[15.4 µM],-2,-9
Cc1cc(NC(=O)CO/N=C/c2ccc3c(c2)OCO3)ccc1Br,-6%,-3.3,3,2%,-14,/
CC(C)C[C@@H]1NC(=O)[C@H](Cc2ccc(O)cc2)NC(=O)c2cc([N+](=O)[O-])cc(I)c2NCCC[C@@H](C(N)=O)NC1=O,10%,-9.8,-1,?,-5,4
O=C1CC2C(=O)NCCN2C(=NC(=O)c2ccccc2)N1 (centres undefined),1%,2.0,-2,-5%[15.4 µM],7,-4
CC(NC(=O)Cn1nc(-c2ccccc2)ccc1=O)c1ccccc1 (centres undefined),-2%,-1.1,4,30%,-2,3
O=C(NCc1cccnc1)c1ccccc1CCc1ccccc1,-3%,-11,3,-27%,-15,/
CC(CO)(CO)NCc1ccc(-c2ccccc2)cc1,16%,-1.7,-2,20%,-5,5
Cn1cnnc1SCCNS(=O)(=O)c1ccccc1,-2%,9.7,5,-16%,-2,4
Cc1noc(C)c1S(=O)(=O)Nc1ccc(C(=O)O)cc1,9%,-1.2,1,-11%,-5,8
CCOc1cc(C(=O)N2CCN(c3ccc(C(C)=O)cc3)CC2)cc(OCC)c1OCC,-10%,-0.6,-1,12%,-1,2
COc1ccc(NC(=O)C2CCN(C(=O)c3cccs3)CC2)cc1OC,-9%,-0.7,17,-41%[inhibitor],-13,30
Cc1cccc(N2CCN(c3nc4ccc(Cl)cc4n4cnnc34)CC2)c1C,8%,-5.4,-3,?,-4,-2
CCN(CCCNC(=O)C1c2ccccc2C(=O)N(CCOC)C1c1ccc(F)cc1)Cc1ccccc1 (centres undefined),1%,-3.9,-4,11%[15.4 µM],-10,-9
CCC1=C(OC(=O)N(CC)CC)N2C(=O)OC(=NCCc3c[nH]c4ccccc34)[C@]2(Cc2ccccc2)[C@H]2C1=CC[C@H]1C(=O)NC(=O)[C@H]12,11µM*,-3.1,-24,-2%,-9,-11
c1ccc(COc2ccc(-c3cc4nc(NCCOc5ccccc5)ccn4n3)cc2)cc1,/,4.9,4,/,-14,1
CCC1([N+](=O)[O-])COC(c2ccc(C(C)C)cc2)OC1 (centres undefined),8%,5.5,12,?,-3,17
Cc1cc(NC(=O)COc2ccc3oc4ccccc4c3c2)no1,6%,-5.1,-8,?,-17,0
COc1ccc(S(=O)(=O)N(C)C)cc1NCC(=O)Nc1cccc(C#N)c1,-1%,-1.9,1,1%,-16,5
Cc1noc(C)c1NC(=O)Nc1cccc2c1O[C@H](CN(C)C(=O)Nc1ccc3c(c1)OCO3)[C@@H](C)CN([C@H](C)CO)C2=O,-2%,2.0,10,/,/,8
Cc1ccc(C(=O)Nc2cccc(C(=O)NC3CCCC3)c2)cc1,-1%,-6.2,-9,-40%[inhibitor],-21,4
O=C(CCCC(=O)c1ccccc1)NCc1ccccc1,-1%,1.7,15,1%,-12,/
Cc1cc(CSc2ccc(Cl)cc2)ccc1N,-11%,5.0,-11,9%,1,-12
COc1cc(C(c2c(C)[nH][nH]c2=O)c2c(C)[nH][nH]c2=O)cc(Br)c1OC,0%,6.9,6,-37%[inhibitor],10,/
O=C1c2ccccc2NC(c2ccc(O)cc2)N1Cc1ccco1 (centres undefined),1%,-0.9,0,6%,9,0
CCn1ncc(Br)c1C(=O)NC(C)c1ccccc1 (centres undefined),0%,-2.4,10,?,0,6
O=C(O)c1cc([N+](=O)[O-])c(Nc2cccc3ccccc23)c([N+](=O)[O-])c1,-12%,-6.2,-11,-2%,-4,0
CN(C(=O)CCc1nnc(CCCCc2ccccc2)o1)C1CC(C)(C)NC(C)(C)C1,15%,-6.0,11,-4%[15.4 µM],-7,6
Cc1c(Br)cccc1NC(=O)C1(C)CCN1CCc1ccccc1 (centres undefined),/,-8.7,19,/,-13,15
O=C1c2ccccc2[C@@H]2C[C@H](NC34CC5CC(CC(C5)C3)C4)[C@@H](O)CCN12,3%,-0.8,-1,/,/,1
CSc1ccc(CCNC(=O)c2nn(C)c3c2CS(=O)(=O)c2ccccc2-3)cc1,0%,-0.2,-9,14%,-10,/
Cc1cc(=O)oc2c(C)c(OCC(=O)N3CC[C@@]4(O)CCCC[C@H]4C3)ccc12,-3%,-3.7,5,/,-24,-6
O=C(C1CCCN(CCCc2ccccc2)C1)N1CCCCC1 (centres undefined),15%,-1.8,-1,-1%,-30,-2
Cc1ccccc1NC(=O)c1cc(N)ccc1N1CCCCC1,?,-2.2,-6,1%,-5,-9
COc1ccccc1C(=O)Nc1cccc(NC(=O)c2ccccc2C)c1,-11%,-0.2,4,-2%,4,-1
COc1ccc2c(C(=O)c3ccc(C)cc3)n(CCCC(N)=O)[n+]([O-])c2c1,-11%,1.0,7,?,-2,-1
COc1ccc(NS(=O)(=O)c2ccc(NC(=S)NC(=O)c3cccnc3)cc2)nn1,-26%,-5.5,8,10%[15.4 µM],-14,/
CCN(C(=O)COC(=O)c1ccc(C)c(S(=O)(=O)N2CCOCC2)c1)C1CCS(=O)(=O)C1 (centres undefined),3%,-5.5,4,-3%[15.4 µM],1,5
CCCOc1ccc(N2C(=O)CC(NCCNc3ccc([N+](=O)[O-])cn3)C2=O)cc1 (centres undefined),9%,-6.9,-7,-8%[15.4 µM],-7,-5
CSC1=NCCN1C(=O)c1c(-c2c(F)cccc2Cl)noc1C,?,-4.2,-7,-6%[15.4 µM],-8,5
COc1cc(NC(=O)CCc2c(C)noc2C)c(Cl)cc1C(=O)O,23%,-1.1,-1,18%,-6,5
CCN(CC)S(=O)(=O)c1cccc(C(=O)N[C@H](C(=O)Nc2nc3ccccc3s2)C(C)C)c1,8%,-4.9,3,0%[15.4 µM],-14,3
Cc1ccnc(NS(=O)(=O)c2ccc(NC(=O)c3c(-c4ccccc4Cl)noc3C)cc2)n1,1%,0.7,2,-23%,5,0
Cc1c(C(=O)NCc2ccc3c(c2)OCCO3)sc(=O)n1Cc1ccccc1C#N,/,3.5,1,/,-4,-5
CCCC(=O)Nc1nc2ccc(OC)cc2s1,-5%,2.0,-2,-81%,-3,-2
Cc1ccc(/C=N/NC(=O)C(C)Oc2cccc3ccccc23)o1 (centres undefined),5%,9.4,1,4%,-6,-4
O=c1n(-c2ccccc2)c(=O)n2n1CCC2,20%,2.5,0,-20%,0,5
Cn1c(C2=C(O)CN(Cc3ccccc3)C2=N)nc2ccccc21,14%,-2.0,4,28%,-19,4
CN(C)C(=O)CCc1ccc2c3c([nH]c2c1)[C@]1(C)[C@@H](C(=O)N2CCCCC2)C[C@H](CC(=O)NCCN2CCOCC2)C(=O)N1CC3,1%,-1.5,2,/,-4,-12
COc1cccc(NC(=S)Nc2ccc(Br)cc2Cl)c1,10%,-0.8,-5,-47%[inhibitor],0,-10
Cc1ccc(NC(=O)Nc2nnc(-c3ccccc3)o2)cc1,16%,-3.5,10,11%[15.4 µM],-14,-7
O=C(C1CCN(S(=O)(=O)c2cc(Cl)ccc2Cl)CC1)N1CCCC1,6%,-2.0,13,2%,-7,16
CCOc1ccc(NC(=O)CN2CCN(CC(=O)c3ccc(OCC)cc3)CC2)cc1,-4%,-2.2,-1,9%,-10,-2
Fc1cccc(NC(=S)N2CCc3ccccc32)c1,-5%,-5.2,-10,3%,-7,-8

# Compound activity deposited in PubChem by National Center for Advancing Translational Sciences (NCATS).

# Compounds as they come, and some 1.4% of all compounds hit somewhere here.
